# GIV Gai3 FP: GIV-Galpha-i interaction inhibition. actives 0.42% (n = 210,000). Galpha-i3/FITC-GIV peptide fluorescence polarization, 90 min; stronger effect = lower value; scaled: aluminum fluoride 0%, vehicle 100%. percent of control (FP), % (no concentration beside the values). P08753;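 active = replicate mean at 85% of control or lower, very high polarization wells dropped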;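 note: wells of about 15 µL received 100 nL stock; the first replicate is given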
# Target sequence (P08753 whole entry, looked up): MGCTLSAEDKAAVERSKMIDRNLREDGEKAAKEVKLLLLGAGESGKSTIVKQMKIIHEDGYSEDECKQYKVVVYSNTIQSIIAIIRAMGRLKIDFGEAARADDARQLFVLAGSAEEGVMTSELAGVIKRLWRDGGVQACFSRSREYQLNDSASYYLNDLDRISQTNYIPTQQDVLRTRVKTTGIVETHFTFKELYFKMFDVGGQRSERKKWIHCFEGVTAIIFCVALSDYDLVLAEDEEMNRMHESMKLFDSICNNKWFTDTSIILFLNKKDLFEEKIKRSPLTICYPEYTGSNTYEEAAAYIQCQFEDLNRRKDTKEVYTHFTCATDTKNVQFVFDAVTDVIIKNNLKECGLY
# Sa growth inh: blocks Staphylococcus aureus growth; S. aureus RN4220 growth, OD600, 20 h, 42 °C; stronger effect = lower value; relative growth, % (test concentration not listed); actives 0.53% (n = 170,000); AID 720641;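 active = growth at 42 °C up to 50% and 20 or more points under that at 30 °C, or under 10% at both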;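 note: 300 nL library stock went into each well; scaled to the means of positive and negative controls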
# HCMV UL50-53 inh: disrupts HCMV UL50-UL53 complex binding; AID 1918969; actives 0.15% (n = 190,000); HTRF UL50-UL53 interaction, normalized percent inhibition; inhibition, % (test concentration not listed);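 active = both replicates at 50% or more, plus weaker picks with an unusually low signal ratio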;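 note: stock transfer was 100 nL into about 20 µL; 0% = negative control wells and 100% = wells with untagged competitor protein; inactives centre near -12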
# Sa growth inh second temp: recorded beside Sa growth inh, whose call it bears; relative growth, %; measured here: growth at 30 °C;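 optical density after 20 h as mean of two plates; 100% = untreated growth and lower means inhibition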
# The depositor's hits bear a star; · = no result given; & = joins results of further samples.
SMILES,GIV Gai3 FP,Sa growth inh,Sa growth inh second temp,HCMV UL50-53 inh
CCN(c1ccccc1)S(=O)(=O)N1CCCC(C(=O)O)C1 (centres undefined),102,128,92,·
Cc1ccc(-c2nc3ccccn3c2NC(=O)c2ccc(Cl)cc2)cc1,104,·,·,-6
CC1CCN(C(=O)C(NS(=O)(=O)c2cccc3nsnc23)c2ccccc2)CC1 (centres undefined),101,·,·,-127
Cc1nnc(SCCC(=O)Nc2ccc(Cl)cc2)o1,97,82,83,1
O=C(NCc1ccccc1)c1ccc2c(=O)n3c(nc2c1)CCCCC3,98,90,81,·
COc1ccc(S(=O)(=O)NCC(c2ccco2)N2CCN(c3ccc(F)cc3)CC2)cc1C (centres undefined),96,95,88,·
O=C(c1cccc(-n2cnnn2)c1)N(CCc1ccccc1)Cc1cccs1,·,84,90,-19
CCc1ccc(-n2nc(CO)c(C(=O)NCCCCc3ccccc3)n2)cc1,100,99,91,-12
NC(=S)N1N=C(c2ccccc2)CC1c1ccccc1 (centres undefined),·,84,69,-38
CC1=NN(c2ccccc2)C(=O)/C1=C/c1ccc(OC(=O)c2ccco2)c(Cl)c1,104,101,60,-19
CCSc1nn(CC(=O)Nc2ccc(Br)cc2F)c(N)c1S(=O)(=O)c1ccc(OC)cc1,100,·,·,-24
Cc1ccc(NC(=O)/C=C/c2ccco2)cc1F,106,92,84,·
Cc1ccc(C)c(NC(=O)c2cc(S(=O)(=O)NCc3ccccc3)ccc2F)c1,102,90,95,·
Fc1ccccc1-c1n[nH]c(=S)n1CCCN1CCOCC1,97,103,90,·
CCOc1ccccc1CNC(=O)C1CCCN(S(=O)(=O)c2ccc3c(ccn3C)c2)C1 (centres undefined),103,90,77,·
COc1cc(C)nc(N(CC(N)=O)S(=O)(=O)c2ccc(C)cc2)n1,104,·,·,8
Cc1ccccc1OCc1nc(-c2ccc(NC(=O)c3ccco3)cc2)no1,·,97,99,4
Nc1ccc(C(=O)Nc2nc3ccccc3s2)cc1,101,108,27,·
O=C(CSc1ccccn1)Nc1cc(C(=O)O)cc(C(=O)O)c1,110,74,89,·
O=C(CSc1nccc(-c2cccs2)n1)N1CCOCC1,101,114,88,-59
CCOC(=O)c1cc(S(=O)(=O)Nc2ccc(C)cc2Cl)[nH]n1,105,90,76,·
N#CCc1ccc(NC(=O)Nc2cccc3ccccc23)cc1,104,96,99,-21
Cc1ccn(CCC(=O)Nc2ccc(-c3ccno3)cc2)n1,97,101,92,-12
Cc1nc(-c2ccc(F)cc2)sc1CCNC(=O)c1ccco1,104,110,98,·
CCC1(c2cccc(OC)c2)CCCC/C1=N\O (centres undefined),99,115,96,-4
O=C1c2ccccc2C(Nc2ccc(S(=O)(=O)N3CCCCC3)cc2)N1c1ccccn1 (centres undefined),105,111,88,·
COc1ccc2c(c1)c1c(c(=O)n(Cc3ccccc3)c(=O)n1CC(N)=O)n2C,106,101,96,-10
COc1cccc(CNC(=O)CCCn2c(=O)c3cccn3c3ccc(F)cc32)c1OC,99,107,61,-7
O=C(CSc1ccc(Cl)cc1)NCCN1CCOCC1,108,104,101,-23
COc1c(C)cc(S(=O)(=O)Nc2cccc(-c3ccc(N4CCOCC4)nn3)c2)c(C)c1C,104,127,90,·
CO[C@H]1C[C@H](O[C@H]2[C@H](C)[C@@H](OC3O[C@H](C)C[C@H](N(C)C)[C@H]3OC(C)=O)[C@@H](C)C[C@]3(CO3)C(=O)[C@H](C)[C@@H](OC(C)=O)[C@@H](C)[C@@H](C)OC(=O)[C@@H]2C)O[C@@H](C)[C@@H]1OC(C)=O (some centres undefined),·,16,3,-46
O=C(Nc1ccc(Br)cc1F)Nc1cc(NC(=O)c2ccccc2)ccc1N1CCCC1,102,·,·,5
O=c1c(Cl)c(N2CCOCC2)cnn1-c1cnc2ccccc2n1,104,87,92,-115
CCOc1ccccc1NC(=O)CCn1c(-c2ccc(OC)cc2)cc(C(C)=O)c1C,103,133,99,·
O=C(c1c(-c2ccc(F)cc2)nc2n1CCS2(=O)=O)N1CCOCC1,102,·,·,-22
O=C(Nc1ccccc1F)c1cnc(N2CCCCC2)c2ccccc12,113,127,107,·
CC(=O)N/N=c1\oc2ccccc2cc1C(=O)Nc1ccccc1,100,95,96,-14
Cc1ccc(F)cc1NC(=O)Nc1cc(C(C)(C)C)nn1C,104,97,92,-14
CC(C)c1nn2c(=O)cc(COC(=O)c3ccccc3Cl)nc2s1,99,89,90,·
Brc1c(CSc2nc3ccccc3o2)nc2ccccn12,108,96,95,-6

# Six entries out of the list, arranged by length of the SMILES, low to high:
SMILES,GIV Gai3 FP,Sa growth inh,Sa growth inh second temp,HCMV UL50-53 inh
CCC1(c2cccc(OC)c2)CCCC/C1=N\O (centres undefined),99,115,96,-4
O=C(CSc1ccc(Cl)cc1)NCCN1CCOCC1,108,104,101,-23
Cc1nnc(SCCC(=O)Nc2ccc(Cl)cc2)o1,97,82,83,1
O=C(CSc1ccccn1)Nc1cc(C(=O)O)cc(C(=O)O)c1,110,74,89,·
CCOC(=O)c1cc(S(=O)(=O)Nc2ccc(C)cc2Cl)[nH]n1,105,90,76,·
CC1=NN(c2ccccc2)C(=O)/C1=C/c1ccc(OC(=O)c2ccco2)c(Cl)c1,104,101,60,-19

# Part of the list above, with values under each structure.
# The line under a structure holds: GIV Gai3 FP	Sa growth inh	Sa growth inh second temp	HCMV UL50-53 inh
CC(=O)N/N=c1\oc2ccccc2cc1C(=O)Nc1ccccc1
 : 100	95	96	-14
Cc1ccc(F)cc1NC(=O)Nc1cc(C(C)(C)C)nn1C
 : 104	97	92	-14

# Remaining list, next part:
SMILES,GIV Gai3 FP,Sa growth inh,Sa growth inh second temp,HCMV UL50-53 inh
C=CCSc1ncc(Cl)c(C(=O)Nc2sc3c(c2C(=O)OCC)CCCC3)n1,136,·,·,-15
CCC(C)SCC(=O)N1CCC(C)CC1 (centres undefined),·,90,90,-19
c1ccc(Cn2c(-c3cccs3)nc3ccccc32)cc1,106,95,91,-26
COc1ccc2c(c1)c1c(c(=O)n(-c3ccccc3)c(=O)n1CC(=O)N1CCCC1)n2C,107,102,91,-93
CN(C)S(=O)(=O)c1ccc(/C(O)=C(\C#N)c2nc3ccccc3s2)cc1,114,58,62,-47
COc1ccccc1C1CC(c2cccs2)=NN1C(=O)CCC(=O)O (centres undefined),111,·,·,-64
CCOC(=O)c1c(C)[nH]c(C)c1S(=O)(=O)N1CCC(C(=O)Nc2ccccc2CC)CC1,106,82,89,·
COc1cccc(C2=Nc3cccc4cccc(c34)N2)c1,109,88,27,·
O=C1NC(=Nc2ccccc2)SC1Cc1cccc(Cl)c1Cl (centres undefined),103,·,·,6
O=C(NCCS(=O)(=O)N1CCN(c2cccc(Cl)c2)CC1)c1cc(=O)c2ccccc2o1,105,90,83,·
Cc1nn(CC(=O)NCC2CCCO2)c(=O)c2ccccc12 (centres undefined),102,101,92,7
O=C(Nc1nnc(C2CC2)s1)c1ccc2c(c1)OCO2,100,92,85,-22
ONC(=NCCc1ccncc1)C(c1ccccc1)c1ccc(F)cc1 (centres undefined),97,79,88,-7
CC(C)Cc1cc(-c2nnc3sc(-c4ccc(F)cc4)nn23)n[nH]1,101,·,·,-7
CCCCn1c(SCC(=O)NCCCOC)nc2c(sc3ccccc32)c1=O,110,108,102,·
Cc1ccc2scc(N3CCN(c4cccc(C(F)(F)F)c4)CC3)c(=O)c2c1,104,82,94,·
CC1=C(OC(=O)/C=C/c2ccccc2)C(=O)CC1,100,92,86,-2
Cc1noc(C)c1CSc1nc2c(sc3ncccc32)c(=O)n1CC(C)C,97,·,·,38*
O=C(Cn1c(=O)oc2ccccc21)c1ccc(Cl)cc1,104,107,101,-10
Fc1cccc(CN2CCc3nc(Nc4ccc5c(c4)OCCO5)ncc3C2)c1F,105,115,92,·

# Some values from above:
# Cc1nn(CC(=O)NCC2CCCO2)c(=O)c2ccccc12 (centres undefined) in GIV Gai3 FP shows 102
# Fc1cccc(CN2CCc3nc(Nc4ccc5c(c4)OCCO5)ncc3C2)c1F in Sa growth inh second temp shows 92

# (more compounds)
SMILES,GIV Gai3 FP,Sa growth inh,Sa growth inh second temp,HCMV UL50-53 inh
CSc1nnc(-c2ccccc2)n1/N=C/c1cc(O)ccc1Cl,97,111,82,1
CCc1ccc(OCCCSc2nc(-c3ccc(C(C)(C)C)cc3)nc3cc(=O)[nH]n23)cc1,102,99,78,·
Cc1c(C(=O)OCCOc2ccccc2)[nH]c2c1C(=O)CC(c1ccccc1Cl)C2 (centres undefined),105,107,92,-2
COc1cccc(CNc2cc(C)c3cccc(OC)c3n2)c1OC,103,93,70,-11
O=C(CCS(=O)(=O)c1cccc2nonc12)Nc1ccc(Br)cc1,104,92,87,·
CCc1ccccc1NC(=O)CSc1nc2c(oc3ccccc32)c(=O)n1C,103,106,83,-27
Fc1ccc(N2COc3cc4c(cc3C2)OCO4)cc1Cl,106,78,98,-10
O=C(Cn1c(=O)c2c(ncn2C2CCCC2)n(Cc2ccccc2)c1=O)NCC1CCCO1 (centres undefined),·,95,90,-8
O=C(NCCOc1ccccc1F)C1CC(=O)N(Cc2ccccc2)C1 (centres undefined),·,109,98,2
CCOC(=O)c1c(NC(=O)COc2ccc(Br)cc2)sc(C(C)=O)c1C,98,114,81,·

# Complete entries, looked up by structure. Order of screens: GIV Gai3 FP, Sa growth inh, Sa growth inh second temp, HCMV UL50-53 inh
# Fc1ccc(N2COc3cc4c(cc3C2)OCO4)cc1Cl across the screens: 106, 78, 98, -10
# CCOC(=O)c1c(NC(=O)COc2ccc(Br)cc2)sc(C(C)=O)c1C across the screens: 98, 114, 81, ·
# CCc1ccccc1NC(=O)CSc1nc2c(oc3ccccc32)c(=O)n1C across the screens: 103, 106, 83, -27
# COc1cccc(CNc2cc(C)c3cccc(OC)c3n2)c1OC across the screens: 103, 93, 70, -11

# (listing goes on)
SMILES,GIV Gai3 FP,Sa growth inh,Sa growth inh second temp,HCMV UL50-53 inh
CCOc1cc(C#N)ccc1OCC(=O)NC1CCCCCC1,106,104,95,-34
Cc1ccc(-c2nc3ccccn3c2Nc2ccc3c(c2)OCCO3)s1,100,111,86,3
CC(C)NC(=O)C1CC(c2ccc(Cl)cc2)=NO1 (centres undefined),102,116,80,-9
O=C(c1ccccc1)N1CCC(n2cccc2)CC1,105,90,79,-12
Nc1nc2c3ccccc3nc(Cc3ccccc3)n2n1,101,107,83,-14
CCc1ccc(-n2c(=O)c3sc4ccccc4c3n(CC(=O)NC3CCCCC3)c2=O)cc1,102,111,93,-41
Cc1ccc2[nH]cc(CCNC(=O)c3c(-c4ccccn4)noc3C)c2c1,100,·,·,-17
O=C(CN1C(=O)C2C3C=CC(C3)C2C1=O)Nc1cccc(F)c1 (centres undefined),108,93,81,·
CCOC(=O)c1ccc(NC(=O)C2=C(C)C(=O)OC23CCN(C(C)C)CC3)cc1,98,77,88,·
COc1cc(C(=O)N(Cc2ccc(F)cc2)Cc2ccco2)cc(OC)c1OC,108,104,97,-6
CC(C)NC(=O)c1cc(Cl)cc(Cl)c1,100,·,·,-2
CCOC(=O)c1c(C)[nH]c(C)c1S(=O)(=O)N(C)CC(=O)N(C)c1ccc(C)c(C)c1,100,107,82,-17
CCOc1ccc(N2C(=O)c3ccccc3C2=O)cc1,99,90,88,-33
NC(=O)C1=C(N=C2CCCCC2)CCCC1,116,113,86,-4
O=C(NCCN1CCCCCC1)c1cnn(-c2ccccc2)c1-n1cccc1,105,85,90,-22
O=C(Nc1ccc2oc(-c3ccc(Cl)cc3Cl)nc2c1)c1ccc2c(c1)OCO2,105,106,94,2
Cn1c(C2=C(O)CN(c3ccc(F)cc3)C2=N)nc2ccccc21,107,·,·,28
O=C(Oc1cc(Cl)cc(Cl)c1)c1ccno1,109,98,37,8
OCCNCc1ccc(-c2ccc(F)cc2)o1,100,·,·,-18
Cc1ccc2nsnc2c1NC(=O)CC12CC3CC(CC(C3)C1)C2,103,95,96,·
Cc1cc(C)nc(NC(=O)C(C)N2C(=O)c3ccccc3S2(=O)=O)n1 (centres undefined),100,89,86,-17
O=S(=O)(c1ccc(F)cc1)c1nc(-c2ccc(F)cc2)oc1NCC1CCCO1 (centres undefined),105,·,·,-11
Cc1ccc2c(c1)c(=O)c1ccccc1n2CC(=O)Nc1ccc(Oc2ccc(Cl)cc2)cc1,104,·,·,-14
Cc1cccc(NC(=O)NCCc2csc3c2CCCC3)c1,107,·,·,-9
Cc1ccc(C(=O)c2oc3ccccc3c2NC(=O)c2cc(=O)c3ccccc3o2)cc1,102,94,87,-7
COc1ccc(Cl)cc1NC(=O)CSC1=NN2CCCC(=O)N=C2S1,104&102,94,74,-7&-32

# Source: PubChem (ICCB-Longwood Screening Facility, Harvard Medical School)
